Screening data from PubChem.
CBX7 AlphaScr – CBX7 inhibition, primary AlphaScreen; O95931; AlphaScreen His6-CBX7 / biotin-H3K27me3 peptide binding; active compounds read low; normalised signal (fraction of DMSO) (no concentration beside the values); actives 1.1% (n = 66,000); AID 1224903; in the data active = normalised signal below about 0.5;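 also: 100 nL library stock added to about 20 µL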
Target sequence (O95931 whole entry, looked up): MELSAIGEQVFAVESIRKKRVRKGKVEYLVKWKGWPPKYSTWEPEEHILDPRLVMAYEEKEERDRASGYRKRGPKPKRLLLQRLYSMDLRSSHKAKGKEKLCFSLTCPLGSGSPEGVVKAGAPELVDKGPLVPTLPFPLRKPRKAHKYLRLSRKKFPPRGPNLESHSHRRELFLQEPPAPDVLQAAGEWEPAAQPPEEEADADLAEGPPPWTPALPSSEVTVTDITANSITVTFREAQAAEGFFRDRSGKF
CBX7 AlphaScr z-score – recorded beside CBX7 AlphaScr, whose call it bears; z-score; measured here: z-score of CBX7 signal; some inactives read as strong as hits; reference of the scale not given here;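 same signal on another scale; lower means less binding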
* hit, by the source's call. Not all compounds are listed. The share of hits here may be higher or lower than overall.

Sequence of screens: CBX7 AlphaScr | CBX7 AlphaScr z-score
- N#Cc1nc(COc2ccc(Cl)cc2)oc1N1CCOCC1
 : 1.22 | 1.37
- CCCCOc1ccc(C(=O)Nc2ccc3oc(-c4ccccc4F)nc3c2)cc1
 : 0.995 | -0.194
- O=C(CC1(CC2=NS(=O)(=O)c3ccccc3N2)CCCC1)NC1CCCCCCC1
 : 1.04 | 1.61
- CC(C)CCN1CC(C(=O)NCc2ccc(F)cc2)CC1=O (configuration not stated)
 : 0.97 | -0.754
- Cc1ccccc1C(=O)Nc1sc2c(c1C(=O)N1CCN(C)CC1)CCC(C)C2 (configuration not stated)
 : 1.15 | 1.84
- CCOC(=O)N1CCC(Nc2c(NCc3ccccc3Cl)c(=O)c2=O)CC1
 : 1.06 | 1.03
- COc1cccc(/C=C/c2nc3ccccc3c(=O)n2-c2ccc(NC(C)=O)cc2)c1OC
 : 1.02 | 1.08
- CCOC(=O)C(C)n1cnc2c(nnn2Cc2ccc(F)cc2)c1=O (configuration not stated)
 : 0.96 | -0.772
- Cc1ccc(-c2nc(C(=O)Nc3ccccc3C#N)c(C)o2)cc1
 : 0.929 | -0.976
- Cc1ccc(C2C(Oc3ccccc3C)C(=O)N2c2ccc(F)cc2)cc1 (configuration not stated)
 : 1.01 | 0.137
- COc1ccc(CCNC(=O)c2nc(-c3ccccc3Cl)oc2C)cc1OC
 : 0.956 | -0.299
- O=C(O)c1ccc2c(c1)C(=O)N(c1ccccc1Cl)C2=O
 : 1.03 | 0.455
- CCCCc1ccc(NC(=O)CSc2nccn2-c2ccc(Cl)cc2)cc1
 : 0.714 | -2.24
- CCc1nnc(NC(=O)COc2ccc(C)cc2C(C)(C)C)s1
 : 1.02 | 0.0449
- Cc1ccc(N(CC(N)=O)S(=O)(=O)c2ccccc2)c(C)c1
 : 1.02 | 0.85
- Cc1c(Cl)cccc1N1CC(c2nc3ccccc3n2CC(C)C)CC1=O (configuration not stated)
 : 1.04 | 1.5
- COc1ccc(CNS(=O)(=O)c2ccc3[nH]cc(C(=O)O)c(=O)c3c2)c(OC)c1
 : 0.69 | -3.5
- COc1ccc(CN(C(=O)c2ccc(C(C)(C)C)cc2)C2CCS(=O)(=O)C2)cc1 (configuration not stated)
 : 0.941 | -0.0588
- CC1(C)Cc2nc3sc4c(NCCc5ccccc5)ncnc4c3cc2CO1
 : 1.06 | 0.648
- Cc1ccc(CN2C(=O)c3ccccc3C2C(=O)NC2CCCCCC2)cc1 (configuration not stated)
 : 1.11 | 0.396
- Cc1ccccc1Cn1cc(NC(=O)c2cc(-c3ccc(Br)cc3)on2)cn1
 : 1.03 | 1.39
- O=S(=O)(c1ccccc1)c1nc(Cc2ccccc2)oc1N1CCCCC1
 : 0.892 | -0.248
- O=c1c2ccccc2nc(SCc2cccc(Cl)c2)n1Cc1ccc2c(c1)OCO2
 : 0.98 | -0.149
- CC(C)CCNC(=O)C1CC(=O)N(CCC(C)C)C1 (configuration not stated)
 : 0.99 | -0.307
- Cc1ccc2oc(-c3ccc(Cl)c(NC(=O)c4cccc(OC(C)C)c4)c3)nc2c1
 : 1.13 | 1.23
- Cc1ccc(-c2nc(C)sc2CC(=O)O)c(C)c1
 : 1.06 | 0.373
- Cc1nc2c(C(=O)NC3CCCCCCC3)cnn2c(C)c1Cc1ccc(F)cc1
 : 0.671 | -5.95
- Cc1ccc(CCNC(=O)CN2C(=O)CC(C)(C)Sc3ccccc32)cc1
 : 1.02 | 0.479
- Cc1ccc(NC(=O)Cn2cc(S(=O)(=O)c3ccc(F)cc3)c(=O)c3cc(Cl)ccc32)cc1
 : 0.993 | -0.217
- COc1ccccc1N1CCN(C(=O)c2cc3c(s2)-c2ccccc2OC3)CC1
 : 0.984 | -0.463
- Cc1c(NC(=O)CC(C)C)cccc1-c1nc2ccccc2o1
 : 0.991 | -0.265
- COc1ccccc1Nc1cc(C(=O)NCCCSC2CCCCC2)c2ccccc2n1
 : 1.19 | 3.32
- CCc1ccc(N2CC(c3nc4ccccc4[nH]3)CC2=O)cc1 (configuration not stated)
 : 1.03 | 1.14
- COc1cc(Cl)ccc1Nc1ncc(C(=O)N2CCN(c3ccccc3F)CC2)c2ccccc12
 : 1.13 | 0.178
- COc1ccccc1NC(=O)C1CC1(c1ccc(C)cc1)c1ccc(C)cc1 (configuration not stated)
 : 0.93 | -0.992
- COc1cc(-c2nc3sc4c(c3c(=O)[nH]2)CCCC4)ccc1OCc1ccc(Cl)c(Cl)c1
 : 1.2 | 1.44
- CCOC(=O)N1CCc2c(sc(NCc3sccc3C)c2C(=O)Nc2ccccc2OCC)C1
 : 0.924 | -2.16
- Cc1ccc(-c2nc(S(=O)(=O)c3ccc(C)cc3)c(N3CCCCCC3)o2)cc1
 : 0.727 | -0.362
- Cc1ccccc1OCc1nc(C#N)c(N2CCC(C(N)=O)CC2)o1
 : 0.947 | -2.31
- O=C(c1ccc2c(c1)N(Cc1ccccc1)CCS2)N1CCOCC1
 : 0.77 | -0.305

Single records, as listed above. Order of values: CBX7 AlphaScr | CBX7 AlphaScr z-score
`Cc1ccc(-c2nc(S(=O)(=O)c3ccc(C)cc3)c(N3CCCCCC3)o2)cc1` reads 0.727 | -0.362
`COc1cc(Cl)ccc1Nc1ncc(C(=O)N2CCN(c3ccccc3F)CC2)c2ccccc12` reads 1.13 | 0.178

More structures follow:
Sequence of screens: CBX7 AlphaScr | CBX7 AlphaScr z-score
- Cc1ccc(C(=O)CC2(O)C(=O)N(Cc3ccc(Cl)cc3)c3ccccc32)cc1 (configuration not stated)
 : 0.732 | -0.465
- Cc1ccc(N(CC(=O)NC2CCCCC2)S(=O)(=O)c2c(C)noc2C)cc1
 : 1.01 | 0.0483
- CCOC(=O)c1ccc2nc(C)cc(Nc3cccc(Cl)c3C)c2c1
 : 1.02 | 0.0185
- COC(=O)c1cc(C(=O)NCc2ccccc2)c(=O)[nH]c1C
 : 1 | 0.0183
- Cn1ccnc1SCC(=O)Nc1nccs1
 : 1.03 | 0.79
- Cc1nn(Cc2ccc(Cl)cc2)c(C)c1NC(=O)CCC(=O)O
 : 0.914 | -0.117
- Cc1nc(N2CCN(c3ccccc3)CC2)c2cc(C)sc2n1
 : 0.952 | -2.15
- O=C1CC(NCCN2CCOCC2)C(=O)N1c1ccc(Br)cc1 (configuration not stated)
 : 0.464* | -8.2*
- CCN(CC)CCCNC(=O)c1c[nH]n2c(=O)c(Cc3ccc(Cl)cc3)c(C)nc12
 : 1 | 0.0533
- Brc1ccc2nc(SCc3nc4ccccc4[nH]3)[nH]c2c1
 : 1.09 | 2.47
- O=C1CCc2cc(S(=O)(=O)NC(Cc3ccccc3)C(=O)NCCC3=CCCCC3)ccc2N1 (configuration not stated)
 : 1.21 | 4
- CN(C1CCCCC1)S(=O)(=O)c1ccc2c(c1)N(CC(=O)NCC1CCCO1)C(=O)CS2 (configuration not stated)
 : 0.972 | -0.827
- COc1ccccc1-c1cc(C(=O)N2CC3(C)CC2CC(C)(C)C3)no1 (configuration not stated)
 : 0.686 | -0.371
- Cc1ccc(C(C(=O)NC2CCCC2)N2CC(C)CC(C)C2)cc1 (configuration not stated)
 : 0.997 | -0.113
- O=C(c1cc(-c2cccc(Cl)c2)on1)N1CCCCCC1
 : 1.06 | 0.443
- CC(C)CCN1C(=O)c2ccccc2C1C(=O)NC1CCCCC1 (configuration not stated)
 : 1.04 | 0.781
- Cc1cccc(OCc2nnc(SCC(=O)Nc3nccs3)o2)c1
 : 1.02 | 0.175
- CCOC(=O)c1cc(-c2ccccc2)n(-c2cccc(C(=O)NC3CCCCC3C)c2)c1C (configuration not stated)
 : 0.796 | -3.67
- Cc1c(C(=O)NCCCN2CCCC2=O)oc2ccc(S(=O)(=O)N3CCCCC3)cc12
 : 1.14 | 1.98
- COc1ccc(-c2cc(C(=O)NCCN3CCOCC3)c3cc(C(C)C)ccc3n2)cc1
 : 1.04 | 0.0486

Reformatted with tabs: part of the list above.
smiles	CBX7 AlphaScr	CBX7 AlphaScr z-score
CC(C)CCN1C(=O)c2ccccc2C1C(=O)NC1CCCCC1 (configuration not stated)	1.04	0.781
COc1ccc(-c2cc(C(=O)NCCN3CCOCC3)c3cc(C(C)C)ccc3n2)cc1	1.04	0.0486
Cc1c(C(=O)NCCCN2CCCC2=O)oc2ccc(S(=O)(=O)N3CCCCC3)cc12	1.14	1.98
CN(C1CCCCC1)S(=O)(=O)c1ccc2c(c1)N(CC(=O)NCC1CCCO1)C(=O)CS2 (configuration not stated)	0.972	-0.827
O=C1CCc2cc(S(=O)(=O)NC(Cc3ccccc3)C(=O)NCCC3=CCCCC3)ccc2N1 (configuration not stated)	1.21	4
CCOC(=O)c1cc(-c2ccccc2)n(-c2cccc(C(=O)NC3CCCCC3C)c2)c1C (configuration not stated)	0.796	-3.67

Continued.
Sequence of screens: CBX7 AlphaScr | CBX7 AlphaScr z-score
- CCN1C(=O)c2ccccc2S(=O)c2ccc(C(=O)NCc3ccccc3OC)cc21 (configuration not stated)
 : 0.966 | -0.869
- CC1CCCC(NC(=O)c2ccc3c(c2)N(Cc2cccc(Cl)c2)C(=O)CS3)C1C (configuration not stated)
 : 1 | 0.000988
- Cc1ccc(NC(=O)Cn2cc(S(=O)(=O)c3ccccc3)c(=O)c3ccccc32)c(C)c1
 : 1.04 | 0.547
- COc1ccc(-c2noc(CCC(=O)NCCCOC(C)C)n2)cc1
 : 0.894 | -0.106
- CCOCCCNC(=O)c1cc(=O)[nH]c2ccc(S(=O)(=O)N3CCCCCC3)cc12
 : 1 | 0.0461
- Cc1[nH]c2ccccc2c1C(c1ccncc1)N1CCOCC1 (configuration not stated)
 : 1.11 | 1.25
- Cc1csc2nc(CSc3ccc(Cl)cc3)c(Br)n12
 : 0.997 | -0.0683
- CCOc1ccc(-n2c(Cc3cc(=O)[nH]c(=O)[nH]3)nnc2SCC(=O)Nc2ccc(F)cc2)cc1
 : 0.909 | -1.39
- COc1ccc(C2CC(c3ccccc3)=Nc3ccccc3S2)cc1 (configuration not stated)
 : 0.866 | -2.08
- CCOc1ccc(-n2nc(C(=O)Nc3ccccc3OCC)c3ccccc3c2=O)cc1
 : 0.968 | -0.922

In the list so far, these have a tert-butyl group.
Sequence of screens: CBX7 AlphaScr | CBX7 AlphaScr z-score
- CCc1nnc(NC(=O)COc2ccc(C)cc2C(C)(C)C)s1
 : 1.02 | 0.0449
- COc1ccc(CN(C(=O)c2ccc(C(C)(C)C)cc2)C2CCS(=O)(=O)C2)cc1 (configuration not stated)
 : 0.941 | -0.0588

More results follow:
Sequence of screens: CBX7 AlphaScr | CBX7 AlphaScr z-score
- Cc1cc(N2CCC(C)CC2)nc2ccc(NC(=O)c3ccc(F)cc3Cl)cc12
 : 0.804 | -2.13
- Cc1ccccc1-c1nc(CS(=O)(=O)CC(=O)NCc2ccccc2Cl)c(C)o1
 : 1.16 | 1.36
- COc1ccc(C2c3c(-c4ccc(C)cc4)n[nH]c3C(=O)N2c2ccccc2)cc1 (configuration not stated)
 : 0.896 | -1.06
- O=C1CC(c2nc3ccccc3[nH]2)CN1c1ccc(Br)cc1 (configuration not stated)
 : 1.14 | 0.896
- O=C(NCCc1cc2ccccc2[nH]1)Nc1ccc2snnc2c1
 : 0.959 | -1.62
- Cc1cc(N2CCN(c3ncccn3)CC2)nc2ccc(NC(=O)CCC3CCCC3)cc12
 : 1.05 | 2.28
- CCN(CC)S(=O)(=O)c1ccc2c(c1)N(CC(=O)N1CCC3(CC1)OCCO3)C(=O)CS2
 : 1.06 | 0.987
- CCn1cc(C(=O)N2C(C)CCCC2C)c(=O)c2ccc(C)nc21 (configuration not stated)
 : 1.02 | 0.207
- Cc1cc2nc(Cc3ccc(F)cc3)c(=O)[nH]c2cc1C
 : 1.3 | 8.96
- Cc1ccc(-c2nnc(Nc3ccc(O)cc3)c3ccccc23)cc1S(=O)(=O)NCCO
 : 0.948 | -0.551
- Cc1cc(-n2nc(C)cc2C)nc(NS(=O)(=O)c2ccccc2Cl)n1
 : 1.19 | 2.09
- CCN1CCCC1CNC(=O)c1sc2ncn(CC(=O)N3CCCCC3)c(=O)c2c1C (configuration not stated)
 : 0.988 | -0.34
- Cc1ccc(Cl)cc1NC(=O)c1cnn2cccnc12
 : 1.04 | 0.662
- COc1ccc(-n2c(CCC(=O)O)ccc2-c2cccs2)cc1Cl
 : 0.88 | -2.09
- CCOc1ccccc1N(C)C(=O)Cn1nc(Cc2cccnc2)c2ccccc2c1=O
 : 0.981 | -0.623
- CC1CCN(CCCNC(=O)CCNC(=O)Cn2ccc3ccccc3c2=O)CC1
 : 0.983 | -0.437
- Cc1ccc(NC(=O)C(C)N2C(=O)c3ccccc3C2=O)c(C)c1 (configuration not stated)
 : 1.04 | 1.49
- CCCc1c(C(=O)OCC)[nH]c2c1C(=O)CC(c1ccc(OC)cc1)C2 (configuration not stated)
 : 1.02 | 0.836
- CCCc1ccc(-c2ccc(-c3noc(-c4ccc(OC)cc4)n3)cc2)nc1
 : 1.09 | 2.51
- CSc1cccc(NS(=O)(=O)c2ccc3[nH]cc(C(=O)NCCCOC(C)C)c(=O)c3c2)c1
 : 0.768 | -4.37
- CCOc1ccc(C(=O)c2cn(Cc3ccccc3)c3ccc(OC)cc3c2=O)cc1
 : 0.584 | -1.47
- O=C(CSc1nnc(CNC(=O)c2cccs2)o1)NCC1CCCO1 (configuration not stated)
 : 1.01 | 0.232
- CCNCC(=O)N1c2ccccc2CCc2ccc(NC(=O)OC(C)C)cc21
 : 1.21 | 3.32
- O=C(Cn1cc(S(=O)(=O)c2ccc(F)cc2)c(=O)c2cc(Cl)ccc21)Nc1ccccc1
 : 1 | 0.0482
- COc1ccc(Br)cc1CN1C(=O)c2ccccc2C1C(=O)NCCc1ccccc1 (configuration not stated)
 : 1.03 | 1.22
- O=C(NCc1cccnc1)C(=O)NCc1cccnc1
 : 1.03 | 0.93
- CCOC(=O)c1[nH]c2ccc(OCc3ccccc3)cc2c1CCN1C(=O)c2ccccc2C1=O
 : 1.16 | 1.59
- CCc1ncc(C(O)c2ccccc2OC)n1C (configuration not stated)
 : 0.954 | -0.521
- COc1cccc(C(=O)Nc2cccc(-c3nc4ccccc4o3)c2C)c1
 : 1.02 | 0.179
- COc1ccc(C2C(=O)N(C3CCCCC3)CC(=O)N2Cc2ccc3c(c2)OCO3)cc1 (configuration not stated)
 : 0.861 | -0.866
